Vaccinia stage = blocks a specific stage of Vaccinia orthopoxvirus infection, primary screen, cell-based, single point; AID 1053133, 2014; hit rate 0.01% among 89,000; activity change (mCherry), % (test concentration not listed); Vaccinia-infected cells, mCherry/Venus stage reporter fluorescence; stronger effect = lower value; some inactives read as strong as hits;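 active = mCherry past -33% and 40 or more points under the early reporter, replicates agreeing; inconclusive = past -33% without that gap or agreement; tested in A549 cells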;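 also: scaled between vehicle wells and reference inhibitor wells; 23 nL library stock went into each well; one replicate is shown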
Vaccinia stage Venus = second read-out of Vaccinia stage, no call of its own (marks repeat the call); activity change (Venus), %; measured here: Venus reporter, other viral stage;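 negative = less Venus signal; first of two replicates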
An asterisk follows results filed as active; ? = inconclusive; . = no result given; & = joins results of further samples. Only part of the results is shown; the hit share may differ from the screen's.

SMILES	Vaccinia stage	Vaccinia stage Venus
CNC[C@H]1Oc2cc(C#Cc3ccc(OC)cc3)ccc2S(=O)(=O)N([C@H](C)CO)C[C@@H]1C	-8.2	-6.2
O=C(C[C@@H]1C[C@H]2c3cc(NC(=O)c4ccc5c(c4)OCO5)ccc3O[C@H]2[C@H](CO)O1)NCC(F)(F)F	-4.4	-0.9
CC(=O)N1CC2(C1)[C@H](c1ccc(-c3cccc(C#N)c3)cc1)[C@@H](CO)N2CCC(F)(F)F	12.5	9.5
C[C@@H]1CN([C@@H](C)CO)C(=O)c2cc(NS(=O)(=O)c3ccc(F)cc3)ccc2O[C@@H](C)CCCCO[C@@H]1CN(C)Cc1ccc(C(F)(F)F)cc1	-10.3	-15.6
CC(C)C#Cc1ccc([C@@H]2[C@@H](CO)N3C(=O)CN(S(=O)(=O)c4ccccc4)C[C@@H]23)cc1	?	.
O=C(C[C@H]1CC[C@@H]2[C@H](COC[C@@H](O)CN2S(=O)(=O)c2ccc(Cl)cc2)O1)NCCN1CCCC1	6.0	5.7
C/C=C/c1ccccc1[C@H]1[C@@H](C#N)N(C(=O)CN2CCOCC2)[C@H]1CO	6.9	3.2
C/C=C/c1ccc([C@H]2[C@@H](CO)N3CCCCN(S(=O)(=O)c4ccc(F)cc4)C[C@@H]23)cc1	?	.
COCC(=O)N(C)C[C@@H]1Oc2cc(C#CCC(C)C)ccc2S(=O)(=O)N([C@H](C)CO)C[C@@H]1C	-0.8	-1.0
C[C@@H]1CN([C@@H](C)CO)C(=O)CCCn2nncc2CO[C@H]1CN(C)Cc1ccc(Cl)c(Cl)c1	-22.6&-11.2	-27.4&-5.0
CCNC(=O)C[C@@H]1CC[C@H]2[C@@H](COC[C@@H](O)CN2C(=O)Nc2c(C)noc2C)O1	-4.4	-2.2
CC=Cc1ccc2n(c1=O)C[C@H]1[C@H](CO)[C@@H](C(=O)NCCc3ccccc3)N(CCC)[C@@H]21 (mixture of isomers)	5.1	5.6
C[C@H](CO)N1C[C@H](C)[C@@H](CN(C)C(=O)Nc2ccc(F)cc2)Oc2c(NC(=O)NC3CCCCC3)cccc2C1=O	6.0	7.7
COCC(=O)N1C[C@@H](C)[C@@H](OC)CN(C)C(=O)c2cc(NC(=O)Nc3ccccc3)ccc2OC[C@@H]1C	9.3	6.7
C[C@@H]1CN([C@H](C)CO)C(=O)c2cccc(NC(=O)Nc3ccc(F)cc3)c2O[C@H]1CN(C)C(=O)Nc1ccc2c(c1)OCO2	12.6	9.9
Cc1noc(C)c1NC(=O)Nc1ccc2c(c1)C(=O)N([C@H](C)CO)C[C@@H](C)[C@H](CN(C)C(=O)Nc1c(C)noc1C)O2	21.3	16.6
C[C@H]1CCCCO[C@@H](CN(C)C(=O)c2ccccc2)[C@@H](C)CN([C@@H](C)CO)C(=O)c2cc(NC(=O)Nc3ccc(C(F)(F)F)cc3)ccc2O1	-21.1	-9.2
CCC(=O)N1C[C@H](O)COC[C@H]2O[C@H](CC(=O)NCc3cc(F)cc(F)c3)CC[C@@H]21	10.3	13.6
O=C(C[C@H]1CC[C@H]2[C@@H](COC[C@@H](O)CN2C(=O)Nc2ccccc2)O1)NC1Cc2ccccc2C1	0.6	0.4
C[C@H](CO)N1C[C@H](C)[C@@H](CN(C)C(=O)Nc2ccccc2)OCCCC[C@H](C)Oc2ccc(NS(=O)(=O)c3ccc(Cl)cc3)cc2C1=O	5.1	-3.0
C[C@@H]1CCCCO[C@@H](CN(C)S(=O)(=O)c2ccc(Cl)cc2)[C@H](C)CN([C@@H](C)CO)C(=O)c2cc(NS(=O)(=O)c3cn(C)cn3)ccc2O1	11.1	4.3
CO[C@H]1CN(C)C(=O)c2cc(NC(=O)CC(F)(F)F)ccc2OC[C@@H](C)N(C(=O)c2ccccc2F)C[C@H]1C	28.8	28.1
CO[C@@H]1CN(C)C(=O)c2ccc(NC(=O)c3ccc4c(c3)OCO4)cc2OC[C@@H](C)N(CC2CC2)C[C@@H]1C	-7.9	-10.4
COc1ccc(NC(=O)N(C)C[C@H]2Oc3ccc(NS(=O)(=O)c4c(C)noc4C)cc3CC(=O)N([C@H](C)CO)C[C@H]2C)cc1	1.1	-8.1
Cc1ccc(S(=O)(=O)N(C)C[C@@H]2Oc3ccc(NC(=O)Cc4cn(C)c5ccccc45)cc3CC(=O)N([C@H](C)CO)C[C@H]2C)cc1	-2.5	-1.1
The list continues:
SMILES	Vaccinia stage	Vaccinia stage Venus
C[C@@H]1CCCCO[C@H](CN(C)S(=O)(=O)c2ccc(Cl)cc2)[C@@H](C)CN([C@H](C)CO)C(=O)c2cc(NC(=O)Nc3cccc4ccccc34)ccc2O1	21.7	8.5
C[C@H](CO)N1C[C@H](C)[C@H](CN(C)S(=O)(=O)c2ccc(C#N)cc2)OCc2ccccc2-c2c(n(C)c3ccccc23)C1=O	?	.
C[C@@H]1CCCCO[C@@H](CN(C)C(=O)Nc2cccc3ccccc23)[C@@H](C)CN([C@@H](C)CO)C(=O)c2cc(NC(=O)Nc3ccc(C(F)(F)F)cc3)ccc2O1	16.4	17.2
COc1ccc(CN(C)C[C@@H]2Oc3ccc(NC(=O)Nc4ccc(OC)cc4)cc3C(=O)N([C@@H](C)CO)C[C@@H]2C)cc1	0.0	-0.9
Cc1noc(C)c1NC(=O)N(C)C[C@H]1OCCCC[C@@H](C)Oc2ccc(NC(=O)c3ccccc3)cc2C(=O)N([C@H](C)CO)C[C@H]1C	45.7	21.6
COCCNC(=O)C[C@@H]1CC[C@@H]2[C@H](COc3ccc(NC(=O)Nc4ccccc4)cc3C(=O)N2C)O1	1.1	-6.9
COc1ccc(NC(=O)N(C)C[C@@H]2Oc3ccc(NC(=O)Cc4cn(C)c5ccccc45)cc3CC(=O)N([C@@H](C)CO)C[C@@H]2C)cc1	3.9	12.1
C[C@H](O)C#Cc1ccc2c(c1)O[C@@H](CN(C)Cc1ccccn1)[C@H](C)CN([C@H](C)CO)S2(=O)=O	-0.6	-10.0
O=C(Nc1ccc(Cl)cc1)N[C@@H]1CC[C@H](CCn2cc(-c3ccccc3F)nn2)O[C@H]1CO	-16.1	-13.3
CCCNC(=O)N[C@H]1CC[C@@H](CCn2cc(-c3cccc(F)c3)nn2)O[C@H]1CO	18.7	7.6
Cc1ccc(-c2ccc([C@H]3[C@@H](CO)N4C(=O)CN(C(=O)CN5CCOCC5)C[C@@H]34)cc2)cc1	16.3	4.7
CCNC(=O)[C@@H]1[C@@H](CO)[C@@H]2Cn3c(ccc(-c4ccccc4OC)c3=O)[C@@H]2N1CC	7.5	9.2
CC(C)C#Cc1ccc2c(c1)O[C@@H](CN(C)Cc1cncnc1)[C@H](C)CN([C@H](C)CO)S2(=O)=O	-34.0	-30.1
COc1ccc(NC(=O)N2CC(=O)N3[C@H](C2)[C@@H](c2ccc(/C=C/c4ccccc4)cc2)[C@@H]3CO)cc1	-30.9	-25.1
CCN1[C@@H]2Cn3c(ccc(-c4cccnc4)c3=O)[C@H]1[C@@H](C(=O)NC1CCCCC1)[C@@H]2CO	9.3	3.3
Cc1ccc(-c2cnc3c(c2)C(=O)N([C@@H](C)CO)C[C@H](C)[C@@H](CN(C)CC2CCOCC2)O3)cc1	-2.2	-5.6
C[C@H]1CN([C@@H](C)CO)C(=O)Cc2cc(NC(=O)Cc3ccccc3)ccc2O[C@H]1CN(C)Cc1ccc(C(F)(F)F)cc1	-23.5	-14.0
COc1ccc(NC(=O)N[C@@H]2C=C[C@@H](CC(=O)NC3CCCCC3)O[C@H]2CO)cc1	-3.2	-0.5
O=C(C1=C[C@@H](c2ccc(Br)cc2)C[C@@H](OCCCCO)O1)N1CCN(Cc2ccccc2)CC1	13.0	9.5
C[C@@H]1CN([C@H](C)CO)S(=O)(=O)c2ccc(-c3ccccc3)cc2O[C@@H]1CN(C)Cc1cccnc1	-27.8	-20.6
CN(C)CC(=O)N[C@@H]1CC[C@@H](CC(=O)NCc2ccccc2F)O[C@H]1CO	4.8	0.9
C[C@@H]1CN([C@H](C)CO)C(=O)c2cc(NC(=O)CCCN(C)C)ccc2O[C@H]1CN(C)C(=O)Nc1cccc2ccccc12	11.5	7.3
COCC(=O)N(C)C[C@@H]1Oc2ncc(C3=CCCCC3)cc2C(=O)N([C@@H](C)CO)C[C@H]1C	7.7	3.7
CC(C)NC(=O)N1[C@H](CO)[C@@H]2c3ccccc3N(C(=O)c3ccccn3)C[C@@H]21	24.5	21.5
C/C=C/c1ccc([C@@H]2[C@@H](CO)N3C(=O)CN(C(=O)c4ccccc4)C[C@H]23)cc1	2.5	-1.6
(continued)
SMILES	Vaccinia stage	Vaccinia stage Venus
CC=Cc1ccc2n(c1=O)C[C@H]1[C@H](CO)[C@@H](C(=O)OC)[C@@H]2N1CC1CCCC1 (mixture of isomers)	0.7	-1.6
O=C(Cc1ccccn1)N1CCCCN2[C@@H](CO)[C@@H](c3ccc(-c4ccc(F)cc4)cc3)[C@@H]2C1	-9.2	-14.9
COCc1cn(CC[C@H]2CC[C@@H](NC(=O)Nc3ccc(C(F)(F)F)cc3)[C@H](CO)O2)nn1	8.9	-0.5
Cc1noc(C)c1NC(=O)Nc1ccc2c(c1)C(=O)N([C@H](C)CO)C[C@@H](C)[C@@H](CN(C)Cc1ccncc1)O2	8.8	3.8
COc1cccc(S(=O)(=O)N[C@@H]2CC[C@H](CCn3cc(-c4ccc(F)cc4)nn3)O[C@H]2CO)c1	-20.8	-13.4
COCC(=O)N1C[C@@H](C)[C@@H](OC)CN(C)C(=O)c2ccc(NC(=O)NC(C)C)cc2OC[C@H]1C	16.0	-0.4
CN(C)CC#Cc1ccc([C@H]2[C@H](CO)N3CCCCN(C(=O)Nc4cc(F)ccc4F)C[C@@H]23)cc1	6.6	9.6
O=C(Nc1cc(F)ccc1F)N1CC(=O)N2[C@H](C1)[C@H](c1ccc(-c3cccc(F)c3)cc1)[C@@H]2CO	-16.6	-11.3
COc1cccc(-c2ccc3n(c2=O)C[C@@H]2N[C@H]3[C@H](C(=O)N3CCCCC3)[C@H]2CO)c1	10.9	20.0
Cc1ccc(S(=O)(=O)Nc2cccc3c2O[C@H](CN(C)S(=O)(=O)c2ccc(Cl)cc2)[C@H](C)CN([C@H](C)CO)C3=O)cc1	-17.9	-0.3
CCC(=O)N1C[C@@H](C)[C@@H](OC)CN(C)C(=O)c2ccc(NC(=O)NC(C)C)cc2OC[C@H]1C	0.5	2.8
CNC[C@H]1OCCCC[C@@H](C)Oc2ccc(NC(=O)C3CCCCC3)cc2C(=O)N([C@@H](C)CO)C[C@H]1C	-2.0	6.3
COc1ccc(NC(=O)N(C)C[C@@H]2Oc3ccc(NC(=O)C4CCCCC4)cc3CC(=O)N([C@@H](C)CO)C[C@H]2C)cc1	19.0	15.8
C[C@H]1CN([C@@H](C)CO)C(=O)CCCn2cc(nn2)CO[C@H]1CN(C)Cc1ccc2c(c1)OCCO2	11.7	11.5
Cc1ccc(S(=O)(=O)N[C@@H]2CC[C@@H](CC(=O)N3CCN(c4ccccc4)CC3)O[C@H]2CO)cc1	0.9	7.8
CO[C@H]1CN(C)C(=O)c2cc(NC(=O)C3CCCCC3)ccc2OC[C@H](C)N(C)C[C@@H]1C	-2.8	-0.4
COc1cccc(C#Cc2ccc([C@@H]3[C@@H](C#N)N(C(=O)c4ccccn4)[C@@H]3CO)cc2)c1	-23.4	-7.3
COCC(=O)N(C)C[C@@H]1Oc2ncc(C#CC3(O)CCCC3)cc2C(=O)N([C@@H](C)CO)C[C@@H]1C	18.0	18.1
C[C@H]1CN([C@@H](C)CO)C(=O)c2cc(N(C)C)ccc2O[C@@H]1CN(C)Cc1ccc(C(=O)Nc2ccccc2N)cc1	-14.9	-13.7
COc1ccccc1-c1ccc([C@@H]2[C@@H](C#N)N(C(=O)C3CCCCC3)[C@@H]2CO)cc1	?	.
C[C@@H]1CN([C@@H](C)CO)C(=O)c2cc(C#CC3CCCCC3)cnc2O[C@@H]1CN(C)C(=O)Cc1ccccn1	-8.9	-12.7
C[C@H](CO)N1C[C@H](C)[C@@H](CN(C)S(=O)(=O)c2ccccc2)Oc2ccc(NC(=O)Nc3ccccc3)cc2CC1=O	14.5	12.7
CC(C)NC(=O)Nc1ccc2c(c1)C(=O)N([C@@H](C)CO)C[C@H](C)[C@H](CN(C)S(=O)(=O)c1ccc(F)cc1)OCCCC[C@@H](C)O2	10.9	9.5
C[C@H](CO)N1C[C@H](C)[C@@H](CN(C)C(=O)Nc2ccc(F)cc2)OCCCC[C@H](C)Oc2ccc(NS(=O)(=O)c3cn(C)cn3)cc2C1=O	1.1	0.5
CO[C@@H]1CN(C)C(=O)c2cc(NS(=O)(=O)c3ccc(C)cc3)ccc2OC[C@@H](C)NC[C@@H]1C	1.6	7.2
C/C=C/c1ccc([C@@H]2[C@@H](CO)N3CCCCN(C(=O)Nc4ccc(F)cc4)C[C@H]23)cc1	?	.
CC(C)NC(=O)N(C)C[C@H]1Oc2c(NC(=O)Nc3cccc4ccccc34)cccc2C(=O)N([C@H](C)CO)C[C@H]1C	-17.4	-12.2

A draw from above in order of length of the SMILES, smallest number first.
SMILES	Vaccinia stage	Vaccinia stage Venus
CN(C)CC(=O)N[C@@H]1CC[C@@H](CC(=O)NCc2ccccc2F)O[C@H]1CO	4.8	0.9
CC(C)NC(=O)N1[C@H](CO)[C@@H]2c3ccccc3N(C(=O)c3ccccn3)C[C@@H]21	24.5	21.5
O=C(C1=C[C@@H](c2ccc(Br)cc2)C[C@@H](OCCCCO)O1)N1CCN(Cc2ccccc2)CC1	13.0	9.5
COc1ccc(NC(=O)N(C)C[C@H]2Oc3ccc(NS(=O)(=O)c4c(C)noc4C)cc3CC(=O)N([C@H](C)CO)C[C@H]2C)cc1	1.1	-8.1
Cc1noc(C)c1NC(=O)N(C)C[C@H]1OCCCC[C@@H](C)Oc2ccc(NC(=O)c3ccccc3)cc2C(=O)N([C@H](C)CO)C[C@H]1C	45.7	21.6
C[C@H](CO)N1C[C@H](C)[C@@H](CN(C)C(=O)Nc2ccccc2)OCCCC[C@H](C)Oc2ccc(NS(=O)(=O)c3ccc(Cl)cc3)cc2C1=O	5.1	-3.0
C[C@@H]1CCCCO[C@H](CN(C)S(=O)(=O)c2ccc(Cl)cc2)[C@@H](C)CN([C@H](C)CO)C(=O)c2cc(NC(=O)Nc3cccc4ccccc34)ccc2O1	21.7	8.5

Screening results: PubChem BioAssay, Broad Institute
